TRPML1 ag: agonists of human TRPML1 channel; AID 624414; activation, % (test concentration not listed); TRPML1-expressing cells, Ca2+ dye fluorescence, FDSS; host cell line not named in the record; reference of the full effect not given here; actives 0.12% (n = 410,000); Q9GZU1; in the data active = activation above about 50%; inconclusive = about 30% to 50%; inactive = below about 30%; further: 0% is about no effect; the text of the record puts the active cut at 80%
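Cells: TRPML1-DL, 1X Tet inducer, ~16 h at 37 degrees C/5% CO2. Dye: ABD Ca8 no-wash + quencher, 45-90 min RT. Read: 10 s baseline, compound add, 110 s agonist phase; 54-4 EC80 (4uM final), 110 s antagonist phase.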
TRPML1 blocker: blocks the human TRPML1 channel. Q9GZU1. TRPML1-inducible cells, Ca2+ dye fluorescence, FDSS; hits give low values; inhibition of EC80 agonist-evoked calcium signal. activity change, negative = inhibition, % (test concentration not listed). actives 0.02% (n = 390,000). AID 624415; in the data active means activity change below about -50%; inconclusive means about -30% to -50%; inactive means above about -30%;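 further: stimulus is agonist 54-4 at its EC80 concentration; on the % scale 0 is the no-effect control and ±100 the full control effect; compound concentration not given in the record; the text of the record puts the active cut at -80%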
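TRPML1-DL cells, Tet-induced overnight (~16 h, 37 °C) at 1,500 cells/well, were loaded with Ca8 no-wash dye plus quencher for 45-90 min at room temperature. Compounds were pinned during FDSS kinetic reading; agonist 54-4 at EC80 (4 uM final) then added.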
CtBP-E1A blk: blocks the CtBP interaction with E1A; AlphaScreen GST-E1A/His-CtBP binding, 1536-well; hits give low values; control for the full effect not named in the record; activity change, % (no concentration beside the values); actives 0.49% (n = 340,000); AID 651724; in the data active means activity change below about -65%; inconclusive means about -30% to -65%; inactive means above about -30%; further: on the % scale 0 is the no-effect control and ±100 the full control effect; compound concentration not given in the record
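In 5 uL wells, 23 nL compound meets equimolar GST-E1A and His-CtBP (5X stock 125 nM each) for 2 h, 37 °C. Beads (5X, 50 ug/mL) then 1 h, 37 °C, dark.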
D2 potentiator: human D2 receptor positive allosteric modulation. P14416. DiscoveRx D2 beta-arrestin cells, luminescence, 90 min; 100% = 57 uM dopamine signal. potentiation, % (no concentration beside the values). actives 0.23% (n = 360,000). AID 624464; active = potentiation of 50% or more; inconclusive = 30% to 50%; inactive = 30% or less;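 further: compound concentration not given in the record; tested on top of an EC20 dose of dopamine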
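PathHunter beta-arrestin assay in DiscoveRx D2 cells. Compounds were added with an EC20 of dopamine (50 nM final) for 90 min at 37 deg C. Luminescence was read 1 h after detection reagent, with 57 uM dopamine as the EC100 control.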
TRPV1 potentiator: potentiators of human vanilloid receptor 1 (TRPV1); actives 0.02% (n = 320,000); AID 540277; potentiation, % at 8.33 µM; TRPV1-expressing cells, Fluo-8 calcium influx, capsaicin EC20 potentiation; host cell line not named in the record; control for the full effect not named in the record; Q8NER1; active means potentiation above 80%; inconclusive means 30% to 80%; inactive means below 30%; further: 0% is about no effect
Target sequence (Q8NER1 whole entry, looked up): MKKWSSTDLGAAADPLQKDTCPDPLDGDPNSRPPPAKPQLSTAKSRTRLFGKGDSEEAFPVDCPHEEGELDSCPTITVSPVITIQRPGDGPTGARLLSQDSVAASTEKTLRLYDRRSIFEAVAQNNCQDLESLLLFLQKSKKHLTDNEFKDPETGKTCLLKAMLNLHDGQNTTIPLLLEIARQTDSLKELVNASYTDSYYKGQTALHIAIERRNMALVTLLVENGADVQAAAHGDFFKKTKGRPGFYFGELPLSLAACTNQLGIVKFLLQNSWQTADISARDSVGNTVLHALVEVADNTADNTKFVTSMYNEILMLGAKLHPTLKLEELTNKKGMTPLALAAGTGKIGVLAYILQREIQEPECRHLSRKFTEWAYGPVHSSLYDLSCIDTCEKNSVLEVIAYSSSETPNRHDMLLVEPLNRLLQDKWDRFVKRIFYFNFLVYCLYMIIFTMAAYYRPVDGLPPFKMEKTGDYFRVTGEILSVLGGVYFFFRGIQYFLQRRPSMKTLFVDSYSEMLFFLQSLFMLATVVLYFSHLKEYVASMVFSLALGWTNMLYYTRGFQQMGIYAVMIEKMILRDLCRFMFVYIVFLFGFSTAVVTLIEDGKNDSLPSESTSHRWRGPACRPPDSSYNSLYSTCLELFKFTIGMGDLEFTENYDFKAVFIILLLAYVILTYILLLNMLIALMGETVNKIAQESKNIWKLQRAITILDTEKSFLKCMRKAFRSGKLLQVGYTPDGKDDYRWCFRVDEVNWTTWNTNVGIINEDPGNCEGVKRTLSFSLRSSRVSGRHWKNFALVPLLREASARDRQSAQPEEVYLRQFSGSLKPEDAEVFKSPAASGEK
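TRPV1-expressing cells were cultured overnight at 35.5C and loaded with Fluo-8 calcium dye for 40 to 90 min at room temperature. After a 10 s baseline, compound was added and calcium influx was read kinetically for 3 min (ex 480/em 520 nm).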
Six1-Eya2 blk: blocks human Six1 binding to Eya2; Q15475+O00167; AlphaScreen GST-Six1/His-Eya2 binding, biochemical; hits give low values; control for the full effect not named in the record; activity change, % (no concentration beside the values); actives 0.56% (n = 360,000); AID 651725; in the data active = activity change below about -65%; inconclusive = about -30% to -65%; inactive = above about -30%; further: on the % scale 0 is the no-effect control and ±100 the full control effect; compound concentration not given in the record
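AlphaScreen luminescence read after one hour at 37 °C in darkness. Pin-transferred compounds met GST-Six1 and His-Eya2 protein (5X stock 250 nM/500 nM) plus glutathione donor and Ni-chelate acceptor beads (5X, 50 ug/mL).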
The depositor's hits bear a star; ? = inconclusive; . = not tested or not shown; & = joins results of further samples.

Preview:
SMILES | TRPML1 ag | TRPML1 blocker | CtBP-E1A blk | D2 potentiator | TRPV1 potentiator | Six1-Eya2 blk
CCCCn1c(/N=C/c2c[nH]c3ccccc23)nc2ccccc21 | 1.0 | -5 | 1 | 1 | -17 | -17
COC(=O)Cc1csc(Nc2ccccc2)n1 | 0.0 | -7 | 2 | 12 | -2 | -4
COc1ccc(NS(=O)(=O)c2cccc(C(=O)N/N=C(\C)c3ccc(-n4ccnc4)cc3)c2)cc1 | 0.7 | 13 | 4 | -1 | 6 | -8

Results, from the first entry:
SMILES | TRPML1 ag | TRPML1 blocker | CtBP-E1A blk | D2 potentiator | TRPV1 potentiator | Six1-Eya2 blk
CCCCn1c(/N=C/c2c[nH]c3ccccc23)nc2ccccc21 | 1.0 | -5 | 1 | 1 | -17 | -17
COC(=O)Cc1csc(Nc2ccccc2)n1 | 0.0 | -7 | 2 | 12 | -2 | -4
COc1ccc(NS(=O)(=O)c2cccc(C(=O)N/N=C(\C)c3ccc(-n4ccnc4)cc3)c2)cc1 | 0.7 | 13 | 4 | -1 | 6 | -8
COc1cccc(-c2ccc(=O)n(CC(=O)Nc3cc4c(cc3NC(C)=O)OCCO4)n2)c1 | -0.4 | -11 | -1 | -10 | -12 | -6
Cc1sc2ncn(-n3c(C)ccc3C)c(=O)c2c1C | 0.1 | -5 | -1 | -8 | 4 | 0
CCCNC(=O)C1CNc2ccccc2O1 (configuration not stated) | -0.3 | 2 | -3 | -8 | 1 | 3
Nc1c(Cl)ncnc1N1CCN(c2ncnc(Cl)c2N)CC1 | -0.2 | -6 | . | -8 | 3 | -22
CCc1cc(C(=O)c2ccc(Br)cc2)c(NC(=O)CN(CC)CC)s1 | 0.1 | 43 | -4 | -2 | 3 | -15
CSCCC(NC(=O)c1ccco1)C(=O)Nc1ccc(C)c(S(=O)(=O)N2CCOCC2)c1 (configuration not stated) | -0.4 | -16 | -4 | -15 | ? | -1
O=C(CSc1nnc(CNC(=O)C23CC4CC(CC(C4)C2)C3)n1-c1ccc(F)cc1)Nc1ccc(F)cc1 | 2.3 | 3 | -14 | -10 | -7 | -10
COc1ccc(N2CCN(S(=O)(=O)c3ccc(Br)s3)CC2)cc1 | 0.7 | 1 | -6 | -5 | 1 | -1
Cc1cc(Cl)ccc1OCC(=O)N(Cc1ccco1)C1CCS(=O)(=O)C1 (configuration not stated) | -0.6 | 0 | . | -14 | -10 | -1
CCN(CC(=O)Nc1c(F)cccc1F)C(=O)CSc1nnc(-c2ccco2)n1CC | 0.8 | 2 | -1 | -40 | 1 | 3
Cc1c(Cl)cccc1S(=O)(=O)N1CCC(C(=O)NNC(=O)C2CC2)CC1 | 0.4 | 30 | 6 | -7 | -8 | 8
N#CC1=C(N)OC2=C(CC/C2=C\c2ccccc2Cl)C1c1ccccc1Cl (configuration not stated) | 1.5 | -10 | . | -7 | 17 | -1
CC(C)CCNC(=O)COC(=O)c1cc(Br)c(Br)s1 | 0.5 | 1 | 28 | -7 | -16 | 6
Cc1cccc(NC(=O)C2CCN(S(=O)(=O)c3c(C)noc3C)CC2)c1 | -0.6 | 5 | 5 | -6 | -14 | 3
COc1ccc(NC(=O)c2sccc2OS(=O)(=O)N(C)C)cc1 | 1.0 | 5 | 4 | -1 | 3 | -1
O=C(c1ccco1)N1CCN(C(=S)Nc2ccccc2C(F)(F)F)CC1 | -0.3 | -16 | -12 | -4 | -2 | 18
CC(=O)Nc1ccc(NC(=O)COc2ccc([N+](=O)[O-])cc2)cc1 | 0.9 | 2 | -12 | -2 | -5 | -12

One compound at a time, from the list above.
`CCCNC(=O)C1CNc2ccccc2O1` (configuration not stated) in the list: TRPML1 ag: -0.3; TRPML1 blocker: 2; CtBP-E1A blk: -3; D2 potentiator: -8; TRPV1 potentiator: 1; Six1-Eya2 blk: 3
`CC(C)CCNC(=O)COC(=O)c1cc(Br)c(Br)s1` in the list: TRPML1 ag: 0.5; TRPML1 blocker: 1; CtBP-E1A blk: 28; D2 potentiator: -7; TRPV1 potentiator: -16; Six1-Eya2 blk: 6

Next section:
SMILES | TRPML1 ag | TRPML1 blocker | CtBP-E1A blk | D2 potentiator | TRPV1 potentiator | Six1-Eya2 blk
CCCCCCCc1c(O)nc(SCC(=O)O)[nH]c1=O | 0.0 | 31 | -4 | -1 | -7 | 3
COc1ccc(/C=C2\SC(=N)N(c3ccc(F)cc3)C2=O)cc1OC | -1.1 | 2 | -1 | -17 | 19 | -3
Cc1cccc(N2CCN(C(=O)c3cnn4c(C(F)F)cc(-c5ccccc5)nc34)CC2)c1C | -0.5 | 11 | 4 | -1 | -25 | 0
O=C(NC(=S)N1CCCc2ccccc21)c1ccc(Cl)cc1 | 3.2 | 37 | 1 | 16 | -9 | -18
O=C(CO/N=C/c1ccccc1OC(F)F)N1CCc2ccccc21 | 0.3 | 16 | 9 | -3 | -9 | 0
C[C@H]1CN([C@@H](C)CO)C(=O)CCCn2nncc2CO[C@H]1CN(C)C(=O)Nc1cccc(Oc2ccccn2)c1 | 0.7 | 21 | -4 | -20 | . | 9
COc1ccc(-c2nn(CCC(=O)O)cc2/C=C/C(=O)O)cc1[N+](=O)[O-] | 0.3 | 1 | 6 | -12 | 5 | 12
COc1ccc(N(Cc2nnc3n2CCCCC3)C(=O)Nc2ccccc2)cc1 | 0.7 | -2 | -2 | -3 | 8 | 15
NC(=O)C[C@@H]1N[C@]2(C(=O)Nc3ccccc32)[C@@H]2C(=O)N(C3CCCCC3)C(=O)[C@H]12 | 0.9 | 0 | -13 | -11 | -1 | -11
O=C(CSc1ccc([N+](=O)[O-])cc1)Nc1nnc(C2CC2)s1 | -0.1 | -18 | 4 | -18 | . | 1
Cc1ccc(N2C(=O)C(CN3CCOCC3)C2c2ccccc2)cc1 (configuration not stated) | -0.2 | 9 | 1 | -8 | -7 | 4
CN(C)c1ccc(CN(C(=O)COc2ccc(Br)cc2)C2CCS(=O)(=O)C2)cc1 (configuration not stated) | -0.6 | 6 | -19 | 0 | 4 | -30
Cc1cccc(C(=O)Nc2nccs2)c1[N+](=O)[O-] | 0.0 | -26 | -1 | 6 | -1 | 0
CC(C)CN1CCC(=O)N([C@H](COc2ccccc2)c2ccccc2)CC1 | -0.8&-0.7 | -9 | -5 | -21 | -13 | -8
COc1cc(-c2nnc(SCc3cccnc3)n2C)cc(OC)c1O | 0.6 | 25 | -1 | 3 | -11 | -1
C=CCN1C(=O)c2ccc(C(=O)N(CCC)CC(=O)Nc3ccccc3C)cc2C1=O | -0.1 | 27 | -3 | -2 | -15 | 6
Cc1ccc(SCC(=O)Nc2ccccc2N2CCOCC2)cc1 | -0.4 | -8 | . | -4 | -28 | 2
O=C(Cc1ccccc1)NNS(=O)(=O)c1ccc([N+](=O)[O-])cc1 | 0.0 | -11 | 3 | 4 | 23 | 2
Cc1cccc(C)c1OCC(O)CN(Cc1ccccc1O)C1CCCCC1 (configuration not stated) | -1.1 | -3 | -3 | -7 | -11 | -1
C[C@@]12C(=O)N(Cc3ccc(F)cc3)CC(=O)N1[C@H]1c3cc(Cl)ccc3OC[C@@H]1[C@@H]2c1ccccc1 | 0.7 | 21 | -7 | -3 | . | -14
Cc1nc(NC(=O)c2c(-c3ccccc3)noc2C)sc1C(=O)N(C)C | -0.4 | 9 | 3 | -6 | -21 | 0
O=c1[nH]c(CN2CCN(S(=O)(=O)/C=C/c3ccccc3)CC2)nc2ccccc12 | -0.2 | -14 | 1 | 4 | 5 | -2
CC(OC(=O)CCc1nc2ccccc2c(=O)[nH]1)C(=O)c1ccc(Br)cc1 (configuration not stated) | 1.0 | 7 | -1 | -9 | ? | -3
Cc1cc(C)cc(OCC(=O)OC(C)C(=O)Nc2ccc(Cl)cn2)c1 (configuration not stated) | 0.5 | 13 | 2 | -3 | 0 | -2
CC(=O)Nc1ccc(NC(=O)c2ccc(NS(=O)(=O)c3cc(C(C)(C)C)ccc3C)cc2)cc1 | 0.4 | 7 | 11 | -7 | ? | 0
CCc1ccccc1OCC(=O)Nc1cccc(S(=O)(=O)NCc2ccco2)c1 | 0.5 | -4 | 0 | 0 | 0 | -16
CCCc1nc(SCC(=O)c2ccc(F)cc2)c2ccccc2n1 | 6.1 | 51 | -4 | 2 | 6 | 18
COc1ccc2[nH]c(=O)c(CN(C(=O)NC3CCCCC3)C3CCCC3)cc2c1 | 0.2 | -16 | 40 | -7 | -5 | 22
Cc1ccccc1NC(=O)CSc1nc(COc2ccccc2)nc2ccccc12 | 2.4 | 18 | 7 | -14 | 8 | 5
CCN1CCN(c2sc(S(C)(=O)=O)nc2S(=O)(=O)c2ccc(C)cc2)CC1 | 1.3 | -7 | . | -18 | 13 | 1
COc1cc(C=O)ccc1OCc1cccc(Br)c1 | 2.4 | 26 | 0 | -9 | -8 | -6
CCOC(=O)c1cccc(NC(=O)CSc2nnc(-c3ccoc3C)n2CCOC)c1 | 2.0 | -8 | 3 | -6 | 12 | 0
CCC(=O)Nc1ccc(C(=O)Nc2ccc(Br)cc2F)cc1 | -0.2 | -28 | 3 | 3 | 1 | 5
CC(C)CCNC(=O)COc1ccc(N(C)S(=O)(=O)c2ccc(F)cc2)cc1 | -0.5 | -3 | 4 | -8 | -12 | -5
Cc1cccc2c(C(=O)O)cc(-c3cccnc3)nc12 | -0.7 | 12 | 2 | -8 | 11 | 4
COc1cc(/C=N/NC(=O)c2ccccn2)ccc1OC(=O)c1ccc(Br)cc1 | 0.8 | -12 | 17 | 3 | 3 | -4
CC1CCC(N2CCN(c3ncccn3)CC2)C1 (configuration not stated) | -0.4 | -13 | 11 | -9 | 6 | 9
Cc1cc(C)nc(OC(C(=O)O)C(OCCC(C)C)(c2ccccc2)c2ccccc2)n1 (configuration not stated) | . | . | . | 24 | 6 | 0
C#CCOCCOCCOCCNc1nc(N2CCN(C(=O)[C@H](CCCCN)n3cc(CN)nn3)CC2)nc(N2CCN(C(=O)[C@H](CCCCN)n3cc([C@@H](N)CC(N)=O)nn3)CC2)n1 | 2.4 | 25 | -10 | -17 | . | -2
Cc1ccc(NC(=O)Cn2c(CCC(=O)O)ccc2-c2ccc(Cl)cc2)cc1 | 1.0&0.7 | 10&23 | . | -6 | -17 | -8
Cc1ccc(/C(O)=C2/C(=O)C(=O)N(CCN3CCOCC3)C2c2cccs2)cc1 (configuration not stated) | -0.4 | -2 | 0 | 6 | 10 | 20
CC(=O)Cc1nsc(NC(=O)c2ccc(COc3ccc(C)cc3)o2)n1 | 0.8 | 11 | -3 | 8 | 18 | -1
CCn1c(SCC(=O)NC2CCCC2)nnc1C(C)C | -0.3 | 0 | 6 | -1 | 6 | 8
Cc1cccc(C(CC(=O)N2CCCC2)c2ccccc2)c1O (configuration not stated) | 0.6 | 6 | 1 | -13 | -8 | 9
Cc1ccc(Sc2ncccc2C(=O)N(C)Cc2cccs2)c(C)c1 | 0.3 | -3 | -2 | -9 | -23 | 1
COc1cc(C2NC(=O)NC(C)=C2C(C)=O)cc(OC)c1OC (configuration not stated) | -0.5 | -12 | -2 | -19 | 2 | -4

Compound activity as filed in PubChem.
